# YB-1 expression = YB-1 expression inhibition | U2OS, qRT-PCR YB-1 vs CDIP delta delta Cp, 16 h; hits give high values; zero = DMSO, each unit about twofold | delta delta Cp (YB-1 minus CDIP) (concentration not given with the values) | 30,000 compounds, 0.37% hits;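 active = delta delta Cp rounded down to an integer at or above 3, about 3 SD of DMSO wells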;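 also: higher means less YB-1 transcript or more CDIP transcript relative to DMSO; stock transfer was 100 nL into about 100 µL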
# Shh pathway inh = Sonic Hedgehog pathway inhibition; inhibition, % (no concentration beside the values); Shh-LIGHT2 Gli-luciferase reporter, 30 h; AID 2313; 22,000 compounds, 2.1% hits;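 active = replicate mean of 65% or more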;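 also: pathway switched on by Shh-conditioned medium diluted 1 in 25 in low serum; 100 nL library stock added to about 40 µL; 0% = median of neutral wells and 100% = positive control level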
# MITF inh = MITF inhibition; 37,000 compounds, 0.28% hits; inhibition, % (concentration not given with the values); TRPM1 promoter luciferase, luminescence, 24 h;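 active = most replicates at 85% or more, or half of them and the mean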;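 also: human melanocyte line stably carrying TRPM1 promoter luciferase reporter; 0% = vehicle wells and 100% = a positive control; the first replicate is given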
# PD-1 reversal = activators reversing PD-1 mediated T-cell inhibition; primary human CD4 T cells, PD-L1 beads, CellTiter-Glo 96 h; activation, % (test concentration not listed); 29,000 tested, under 10 active;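 active = replicate mean of 50% or more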;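 also: 0% = median vehicle wells and 100% = positive control; 100 nL library stock added to about 50 µL; numbers are from one replicate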
# The depositor's hits bear a star; / = not tested or not shown. This is a subset; the hit share may differ from the screen's.
# Under each structure – YB-1 expression | Shh pathway inh | MITF inh | PD-1 reversal
- C[C@@H]1CN([C@H](C)CO)C(=O)Cc2cc(NS(C)(=O)=O)ccc2O[C@@H]1CN(C)C(=O)Nc1ccc2c(c1)OCO2
    -0.63 | / | 7 | /
- Cc1ccc(-c2cc(C(F)(F)F)n3nc(C(=O)NCc4ccco4)cc3n2)cc1
    / | / | 6 | -0.5
- COC(=O)CCN(C(=O)c1cccc(OC(C)=O)c1)c1ccccn1
    / | / | 7 | 2.9
- C[C@@H]1CN([C@H](C)CO)C(=O)c2cc(NC(=O)Cc3cn(C)c4ccccc34)ccc2O[C@H]1CN(C)Cc1ccc2c(c1)OCO2
    -0.54 | / | 12 | 1.0
- C[C@@H]1CN([C@H](C)CO)C(=O)Cc2cc(NC(=O)CCC(F)(F)F)ccc2O[C@@H]1CN(C)CC1CCCCC1
    -0.097 | -24 | 1 | -0.6
- CC(C)(C)S(=O)(=O)c1cnc(-c2cnccn2)nc1N
    0.28 | -19 | -30 | 2.0
- C[C@@H]1CN([C@@H](C)CO)C(=O)c2cccc(NC(=O)c3ccc(-c4nccs4)cc3)c2O[C@@H]1CN(C)C(=O)Nc1ccccc1
    3 | -61 | -18 | -2.3
- O=C(COC(=O)c1ccccc1NCc1ccco1)c1ccc(Cl)cc1
    -0.51 | 28 | -24 | -2.5
- C[C@@H]1CN([C@H](C)CO)C(=O)Cc2cc(N(C)C)ccc2O[C@@H]1CN(C)Cc1ccc(Oc2ccccc2)cc1
    -0.17 | -13 | 10 | -3.0
- CC1(OC(=O)/C=C/c2ccccc2)CC(O)C2C=COC(OC3OC(CO)C(O)C(O)C3O)C21 (stereo not given)
    0.2 | -13 | -4 | 0.2
- CC(C)NC(=O)N(C)C[C@H]1Oc2ccc(NS(=O)(=O)c3ccc(F)cc3)cc2C(=O)N([C@@H](C)CO)C[C@@H]1C
    -0.69 | / | 9 | 2.5
- C[C@H](CO)N1C[C@H](C)[C@H](CN(C)C(=O)NC2CCCCC2)Oc2c(NC(=O)Nc3cccc4ccccc34)cccc2C1=O
    0.15 | -46 | 49 | -5.5
- C[C@@H]1CN([C@H](C)CO)C(=O)c2cc(NC(=O)Cc3ccccc3)ccc2O[C@H]1CN(C)C(=O)Nc1ccc2c(c1)OCO2
    0.094 | -2 | -2 | 0.1
- COc1ccc(NC(=O)Nc2ccc3c(c2)C(=O)N([C@H](C)CO)C[C@@H](C)[C@@H](CN(C)C(=O)Nc2ccc(OC)cc2)O3)cc1
    -0.048 | -23 | -1 | 2.7
- CC(C)NC(=O)Nc1ccc2c(c1)CC(=O)N([C@@H](C)CO)C[C@@H](C)[C@@H](CN(C)C(=O)Nc1ccccc1)O2
    0.11 | 2 | 1 | -2.2
- Cc1noc(C)c1NC(=O)Nc1cccc2c1O[C@@H](CN(C)Cc1ccc(Oc3ccccc3)cc1)[C@@H](C)CN([C@@H](C)CO)C2=O
    0.043 | -22 | 8 | /
- Cc1c(C)c(C)c(CSc2ccccn2)c(C)c1C
    0.028 | -12 | 4 | 0.8
- C[C@@H]1CN([C@@H](C)CO)C(=O)c2cc(NS(=O)(=O)c3ccc(F)cc3)ccc2O[C@@H]1CN(C)C(=O)Nc1cccc2ccccc12
    0.39 | 11 | -2 | -0.5
- C[C@@H]1CN([C@@H](C)CO)C(=O)Cc2cc(NC(=O)Nc3ccc4c(c3)OCO4)ccc2O[C@@H]1CN(C)Cc1ccncc1
    0.43 | -62 | -9 | -6.8
- COc1cccc(NC(=O)CNC(=O)c2ccco2)c1
    / | / | -48 | 0.5

# Profiles, quoted from the list. Order of screens: YB-1 expression	Shh pathway inh	MITF inh	PD-1 reversal
# CC(C)(C)S(=O)(=O)c1cnc(-c2cnccn2)nc1N in the list: 0.28	-19	-30	2.0
# COc1ccc(NC(=O)Nc2ccc3c(c2)C(=O)N([C@H](C)CO)C[C@@H](C)[C@@H](CN(C)C(=O)Nc2ccc(OC)cc2)O3)cc1 in the list: -0.048	-23	-1	2.7

# (listing goes on)
# Under each structure – YB-1 expression | Shh pathway inh | MITF inh | PD-1 reversal
- C1=C(c2cccs2)CC(c2cccs2)=NN=C1c1cccs1
    -0.22 | -1 | -8 | 1.2
- Cc1nc(SCC(=O)Nc2ccc([N+](=O)[O-])cc2)[nH]c(=O)c1C
    / | / | 1 | 0.8
- Cc1noc(C)c1NC(=O)N(C)C[C@@H]1Oc2c(NS(=O)(=O)c3cn(C)cn3)cccc2C(=O)N([C@H](C)CO)C[C@H]1C
    0.17 | -21 | -7 | 1.9
- COc1ccc(OC)c(NC(=O)c2ccc(C)c(S(=O)(=O)Nc3ccc(C)cc3)c2)c1
    / | / | 51 | -4.9
- C[C@@H]1CN([C@H](C)CO)C(=O)c2cc(NC(=O)CCCN(C)C)ccc2O[C@@H]1CN(C)Cc1ccc(-c2ccccc2)cc1
    0.24 | / | -22 | 1.1
- Cc1ccc(F)cc1NC(=O)CCCSc1nc(-c2ccco2)cc(C(F)(F)F)n1
    / | / | -12 | 0.8
- COc1ccc(NC(=O)N(C)C[C@H]2Oc3ccc(NS(=O)(=O)c4ccc(Cl)cc4)cc3C(=O)N([C@@H](C)CO)C[C@H]2C)cc1
    -0.3 | -29 | 2 | 0.4
- Cc1noc(C)c1S(=O)(=O)NCC1COc2ccccc2O1 (stereo not given)
    -0.66 | / | 0 | 1.2
- COc1ccc(S(=O)(=O)Nc2ccc3c(c2)C(=O)N([C@H](C)CO)C[C@@H](C)[C@@H](CN(C)Cc2ccncc2)O3)cc1
    0.2 | 22 | 1 | 2.0
- N#Cc1ccc(N2CCCN(C(=S)NC3CCCC3)CC2)nc1
    -0.18 | 35 | -11 | 0.6
- C[C@H](CO)N1C[C@H](C)[C@@H](CN(C)Cc2ccc3c(c2)OCO3)Oc2ccc(NS(=O)(=O)c3ccc(Cl)cc3)cc2C1=O
    -0.037 | / | -2 | -1.0
- C[C@@H]1CN([C@@H](C)CO)C(=O)c2cc(NC(=O)Nc3ccccc3)ccc2O[C@@H]1CN(C)C(=O)NC1CCCCC1
    -0.45 | -21 | -21 | -1.7
- CC(=O)Nc1ccc(NC(=O)CN(C)S(=O)(=O)c2ccc3ccccc3c2)cc1
    / | / | -1 | 0.8
- COc1ccc(NC(=O)N(C)C[C@@H]2Oc3ccc(NC(=O)Nc4c(C)noc4C)cc3C(=O)N([C@@H](C)CO)C[C@@H]2C)cc1
    0.11 | -4 | -6 | /
- Cc1ccc(N(C(C)C(=O)Nc2cccc(C(F)(F)F)c2)S(C)(=O)=O)cc1C (stereo not given)
    / | / | 6 | -2.3
- O=C(CSc1n[nH]c(-c2ccc(Cl)cc2Cl)n1)Nc1ccccc1F
    / | / | -17 | 1.2
- Cc1ccc(S(=O)(=O)N(C)C[C@@H]2OCCCC[C@@H](C)Oc3ccc(NS(=O)(=O)c4ccc(F)cc4)cc3C(=O)N([C@H](C)CO)C[C@@H]2C)cc1
    0.71 | / | 7 | -2.1
- Cc1noc(C)c1NC(=O)N(C)C[C@H]1Oc2ccc(NS(=O)(=O)c3ccc(F)cc3)cc2C(=O)N([C@@H](C)CO)C[C@H]1C
    0.015 | / | -14 | 2.2
- C[C@@H]1CN([C@@H](C)CO)C(=O)c2cccc(NC(=O)Nc3ccccc3)c2O[C@H]1CN(C)C(=O)NC1CCCCC1
    0.67 | -4 | 5 | /
- CC(C)NC(=O)N(C)C[C@@H]1Oc2ccc(NC(=O)Nc3ccc4c(c3)OCO4)cc2CC(=O)N([C@H](C)CO)C[C@@H]1C
    -0.11 | -5 | 2 | 1.3

# Other results
# Under each structure – YB-1 expression | Shh pathway inh | MITF inh | PD-1 reversal
- COc1ccccc1-c1c(C(F)(F)F)oc2cc(OCC(=O)Nc3cc(C)ccc3C)ccc2c1=O
    / | / | -12 | -2.0
- Cc1ccc(S(=O)(=O)N(C)C[C@@H]2Oc3ccc(NS(=O)(=O)c4cccs4)cc3C(=O)N([C@@H](C)CO)C[C@H]2C)cc1
    0.0065 | 1 | -11 | -1.8
- COc1ccc(NC(=O)CC2SC3=NCCN3C2=O)cc1 (stereo not given)
    / | / | 0 | 2.2
- C[C@H]1CN([C@@H](C)CO)C(=O)Cc2cc(NC(=O)NC3CCCCC3)ccc2O[C@@H]1CN(C)S(C)(=O)=O
    0.33 | -6 | 11 | -0.4
- CNC[C@H]1Oc2ccc(NS(=O)(=O)c3ccccc3)cc2C(=O)N([C@@H](C)CO)C[C@H]1C
    0.075 | / | -10 | -1.1
- CNC[C@@H]1Oc2ccc(NC(=O)Cc3ccccc3)cc2CC(=O)N([C@H](C)CO)C[C@@H]1C
    0.16 | -20 | -8 | -0.8
- Cc1ccc(C(=O)NCCCn2ccnc2)cn1
    / | / | 12 | 0.2
- Cn1c(Cc2cccc3ccccc23)nnc1SCC(=O)N1CCc2ccccc21
    / | / | 1 | -3.8
- Cc1ccc(Nc2nc(Oc3ccc(=O)[nH]n3)nc(N(C)C)n2)cc1
    / | / | -9 | 2.9
- Cc1ccc(SC(C)C(=O)NCc2cccnc2)cc1 (stereo not given)
    / | / | -3 | 2.6
- C[C@@H]1CN([C@@H](C)CO)C(=O)Cc2cc(NS(C)(=O)=O)ccc2O[C@@H]1CN(C)S(=O)(=O)c1ccccc1
    -0.21 | / | -4 | 0.1
- C[C@@H]1CN([C@@H](C)CO)C(=O)Cc2cc(N(C)C)ccc2O[C@@H]1CN(C)C(=O)NC1CCCCC1
    -0.23 | -4 | -6 | /
- C[C@H]1CN([C@@H](C)CO)C(=O)c2cccc(NC(=O)CCCCCC(=O)Nc3ccccc3N)c2O[C@@H]1CN(C)S(=O)(=O)c1cn(C)cn1
    0.15 | / | 3 | 0.0
- CC(=O)OC/C(=C\COc1cc(=O)oc2cccc(C)c12)CCC=C(C)C
    -0.56 | 13 | / | /
- C[C@@H]1CN([C@H](C)CO)C(=O)c2cccc(NC(=O)c3cnccn3)c2O[C@H]1CN(C)C(=O)NC1CCCCC1
    0.23 | 14 | -8 | 1.2
- C[C@H](CO)N1C[C@H](C)[C@H](CN(C)C(=O)Nc2cccc3ccccc23)Oc2ccc(NC(=O)CCN3CCOCC3)cc2C1=O
    -0.5 | -7 | 7 | 0.6
- Cc1ccc(S(=O)(=O)Nc2ccc3c(c2)CC(=O)N([C@H](C)CO)C[C@H](C)[C@H](CN(C)C(=O)Nc2c(C)noc2C)O3)cc1
    0.077 | 38 | -18 | 2.5
- C[C@@H]1CCCCO[C@@H](CN(C)Cc2ccc(C(=O)Nc3ccccc3N)cc2)[C@@H](C)CN([C@H](C)CO)C(=O)c2cc(NS(=O)(=O)c3cn(C)cn3)ccc2O1
    -0.15 | / | -23 | 0.1
- COc1cc(OC)c(NC(=O)CSc2nnc(-c3ccccc3)n2C)cc1Cl
    / | / | -1 | -1.4
- C[C@@H]1CN([C@H](C)CO)C(=O)c2cccc(NC(=O)Nc3ccc4c(c3)OCO4)c2O[C@@H]1CN(C)C
    0.24 | -15 | -17 | 1.7

# Next part.
SMILES	YB-1 expression	Shh pathway inh	MITF inh	PD-1 reversal
CC(C)NC(=O)N(C)C[C@H]1Oc2c(NS(=O)(=O)c3cn(C)cn3)cccc2C(=O)N([C@H](C)CO)C[C@@H]1C	-0.51	-19	-4	1.5
CC(C)NC(=O)Nc1ccc2c(c1)CC(=O)N([C@H](C)CO)C[C@H](C)[C@H](CN(C)S(C)(=O)=O)O2	-0.069	-13	-2	/
COc1ccc(NC(=O)N(C)C[C@@H]2Oc3ccc(NS(=O)(=O)c4ccc(F)cc4)cc3CC(=O)N([C@H](C)CO)C[C@H]2C)cc1	0.22	-35	2	0.2
COC(=O)c1ccccc1NC(=O)CNS(=O)(=O)c1c(C)cc(C)cc1C	/	/	-10	-0.5
C[C@H]1CN([C@@H](C)CO)C(=O)c2cccc(NC(=O)Nc3ccccc3)c2O[C@@H]1CN(C)Cc1ccc(C(=O)Nc2ccccc2N)cc1	-0.89	/	-1	-5.0
Cc1ccc(S(=O)(=O)N(C)C[C@H]2Oc3ccc(NC(=O)CCCCCC(=O)Nc4ccccc4N)cc3C(=O)N([C@@H](C)CO)C[C@H]2C)cc1	0.014	/	-21	2.2
COc1ccc(S(=O)(=O)N(C)C[C@@H]2Oc3ccc(N(C)C)cc3C(=O)N([C@@H](C)CO)C[C@H]2C)cc1	-0.22	-1	8	/
Cc1noc(C)c1S(=O)(=O)Nc1ccc2c(c1)C(=O)N([C@@H](C)CO)C[C@@H](C)[C@H](CN(C)Cc1ccncc1)O2	0.48	-40	-5	/

# Next structures:
SMILES	YB-1 expression	Shh pathway inh	MITF inh	PD-1 reversal
C[C@H]1CN([C@@H](C)CO)C(=O)c2cc(NC(=O)Nc3cccc4ccccc34)ccc2O[C@@H]1CN(C)Cc1ccncc1	0.19	/	11	-2.4
C[C@@H]1CN([C@H](C)CO)C(=O)c2cccc(NC(=O)Nc3ccc(F)cc3)c2O[C@@H]1CN(C)C(=O)Nc1ccc(C(F)(F)F)cc1	-0.044	4	-4	-1.0
C[C@H](CO)N1C[C@H](C)[C@@H](CN(C)S(C)(=O)=O)Oc2c(cccc2N(C)C)C1=O	0.085	/	12	0.1
CNC(=O)CN(c1cccc(Br)c1)S(C)(=O)=O	/	/	-22	1.3
COC(=O)C[C@H]1C(C)(C)C2(O)OC34CC2C(=O)[C@]1(C)C3CC[C@]1(C)C4=CC(=O)O[C@H]1c1ccoc1 (stereo not given in full)	0.092	35	-11	/
C[C@@H]1CN([C@H](C)CO)C(=O)c2cc(NC(=O)NC3CCCCC3)ccc2O[C@H]1CN(C)S(=O)(=O)c1ccccc1	0.57	-10	-6	0.1

# Source: PubChem BioAssay (Broad Institute)
